# NPYLR7 agonist = agonists of mosquito NPYLR7 receptor, primary screen, cell-based, Aedes aegypti, calcium fluorescence, mosquito biting behavior. Aedes aegypti neuropeptide Y-like receptor 7 (NPYLR7). HEK293T NPYLR7/Galpha15, GCaMP6s calcium fluorescence. activation, % at 10 µM. hit rate 0.15% among 270,000; in the data active = activation above about 40%;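 also: 0% = vehicle and 100% = reference agonist at the receptor; some compounds past the cut are filed as inactive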
# NPYLR7 agonist max-min = further read-out of NPYLR7 agonist, marked with its call; activation, %; measured here: Max-Min RFU normalised activation; some inactives read as strong as hits;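 span of the calcium signal over five minutes; 0% = vehicle and 100% = native peptide agonist; compound fluorescence can raise it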
# * hit, by the source's call; & = joins results of further samples.
SMILES,NPYLR7 agonist,NPYLR7 agonist max-min
O=C(NCCCN1CCOCC1)c1cc2nc(-c3cccs3)cc(C(F)(F)F)n2n1,-9,-11
C=CCn1cc(CNC(C)c2ncnn2CC)c(C)n1 (stereo not drawn),4,3
COc1cc(-c2ccc(C)c3ncccc23)ccc1NC(C)=O,7,-10
CC(C)(C)c1cc(NC(=O)c2cccnc2N2CCOCC2)n[nH]1,-3,-5
C=CC(=O)N=C1N=C2C=CC(I)=CN2Cc2ccccc21,-7,-11
Cc1cc(C(=O)N2CCN(c3ccccc3F)CC2)n2nc(C(C)(C)C)cc2n1,3,5
COc1ccccc1N1CCN(S(=O)(=O)c2ccc(F)c(F)c2)CC1,6,3
CCOc1cc(-c2nccn2-c2ccc(NC(C)=O)cc2)ccc1O,7,7
CC1SC(=O)CC1C1(C)C=CC(=O)S1 (stereo not drawn),4,3
CC1(C)CC2CC(C)(CN2S(=O)(=O)c2cc(Cl)ccc2Cl)C1 (stereo not drawn),-4,-8
O=C(COCc1ccccc1)N1CCN(Cc2ccc(-c3noc(-c4cccc(Cl)c4)n3)cc2)CC1,10,5
CCOC(=O)C1CCCN(C(=O)c2ccc(CSc3nc(N4CCOCC4)cc(C(F)(F)F)n3)cc2)C1 (stereo not drawn),11,11
CCC(Oc1ccccc1C)C(=O)Nc1ccccc1F (stereo not drawn),3,6
COc1ccccc1N1CCN(c2ccc(NC(=O)c3ccc(F)cc3)cc2C(=O)NC2CCCCC2)CC1,17,22
O=C1NC2(CCN(Cc3ccoc3)CC2)Nc2cc(Cl)ccc21,-2,12
Cc1sc2ncn(CC(=O)c3ccc[nH]3)c(=O)c2c1C,-2,-2
COc1ccc(NC(=O)c2sc(SCC(=O)Nc3nccs3)nc2N)cc1,0,-5
O=C(CCC1CCCN(Cc2cn[nH]c2C2CCCCC2)C1)Nc1ccccc1F (stereo not drawn),9,6
CCc1ccc(C2c3cccn3CCCN2Cc2ccoc2)cc1 (stereo not drawn),2,11
CCOC(=O)N1CCN(c2c(NC3CCC(C)CC3)c(=O)c2=O)CC1 (stereo not drawn),4,5
CCN(C(=O)C(C)N1CCN(c2cc(Cl)ccc2C)CC1)C1CCS(=O)(=O)C1 (stereo not drawn),4,1
CCC1(c2ccccc2)NC(=O)N(CC(=O)NC(C)c2ccccc2)C1=O (stereo not drawn),7,5
Cn1cnnc1SCC(=O)Nc1ccc2oc3ccccc3c2c1,7,1
CCOCCCN(CC(=O)N1CCc2sccc2C1c1ccccc1)C(=O)Cc1cccs1 (stereo not drawn),6,6
COc1ccc(-c2cc(C(=O)NCc3cccc(C(F)(F)F)c3)n(-c3cccc(Cl)c3)n2)c(OC)c1,18,18
Cc1cc(C)nc(N=C(N)N2CCCc3ccccc32)n1,-1,-6
CCC(C(=O)NCc1cccc(C(F)(F)F)c1)n1c(=O)n(-c2cccc(OC)c2)c(=O)c2ccc(Cl)cc21 (stereo not drawn),3,8
COc1ccccc1C(=O)NC(CCS(C)(=O)=O)C(=O)O (stereo not drawn),-2,-3
COc1cccc(-c2cc(C(=O)N3CCN(C(=O)NCc4ccccc4)CC3)c(C)n2-c2ccccc2)c1,-5,-5
c1ccc(-n2nnnc2SCc2cn3ccsc3n2)cc1,6,7
CC(=O)c1c(C)nn(CCC(=O)N2CCOC(c3ccc(F)cc3)C2)c1C (stereo not drawn),-1,-9
COCCNc1nc(-c2ccco2)nc2ccccc12,-3,7
CCOC(=O)c1cnc2c(C(F)(F)F)cccc2c1N1CCOCC1,9,11
O=C(Nc1ccc(-c2cccc(-c3ccc4c(c3)OCCO4)n2)cc1)c1cccnc1Cl,19,20
CN1CCC(Cc2noc(-c3scc4c3OCCO4)n2)CC1,1,-6
CC(C)CNC(=O)CN1CCCSc2ccc(Cl)cc21,1&10,-2&8
COc1ccccc1N1CCN(S(=O)(=O)c2ccc3c(c2)C(=O)c2ccccc2C3=O)CC1,-4,-7
CN(Cc1nc(Cc2ccccc2)no1)CC1(c2ccccc2)CC1(C)C (stereo not drawn),9,6
CCCc1cc(C(=O)OCc2nn3c(=O)cc(C)nc3s2)sc1C,8,7
Cc1ccc(C(=O)N2CCCC2c2nonc2C)cc1NC(=O)C1CC1 (stereo not drawn),13,11

# Entries of single compounds, looked up by structure. Order of screens: NPYLR7 agonist, NPYLR7 agonist max-min
# `Cc1cc(C(=O)N2CCN(c3ccccc3F)CC2)n2nc(C(C)(C)C)cc2n1` as listed: 3, 5
# `C=CC(=O)N=C1N=C2C=CC(I)=CN2Cc2ccccc21` as listed: -7, -11
# `COc1cc(-c2ccc(C)c3ncccc23)ccc1NC(C)=O` as listed: 7, -10

# Further structures.
SMILES,NPYLR7 agonist,NPYLR7 agonist max-min
CN(C)c1ccc(C(=O)N2CCN(Cc3ccccc3)CC2)cc1,0,-1
N#Cc1ccc(S(=O)(=O)Oc2ccccc2C(=O)N2CCOCC2)cc1,-2,0
CC(OC(=O)CC1CC2CCC1C2)C(=O)N1CCCc2ccccc21 (stereo not drawn),8,-16
CC(=O)Nc1ccc(CN2CCCN(C(=O)C3CCC3)CC2)cc1,-4,-4
NC(N)=NN=C1CCC(c2ccccc2)CC1 (stereo not drawn),4,1
CC1(C)Cc2c(C#N)c(SCC(=O)c3ccccc3)nc(N3CCOCC3)c2CO1,-1,-3
CCc1ccc(CN2CCC3(CC2)C(=O)N(Cc2ccc4ccccc4c2)C(=O)N3CCCOC)o1,3,-5
CCc1nc(N2CC[C@@H](N3CCC(O)CC3)[C@H](O)C2)ncc1C,0,-5
O=C(CCN(CCc1ccccc1)c1nc(-c2ccc(F)cc2)nc2cc(Cl)ccc12)NCCN1CCOCC1,21,18
CCN1CCN(c2nc(Nc3ccccc3)nc(N)c2[N+](=O)[O-])CC1,2,9
COC(=O)c1ccc(COC(=O)CNC(=O)c2ccc(C)s2)cc1,-6,-8
COc1cc2c(cc1OC)[C@H](C)N(CC1C(=O)O[C@@H]3C[C@@]4(C)CCC[C@H](C)[C@@]45OC5[C@H]13)CC2 (stereo partly drawn),-1,-1
CN[C@@H]1C(O[C@H]2O[C@H](CO)[C@@H](N)[C@H](O)[C@H]2O)O[C@H]2C[C@@H](N)[C@@H](O[C@H]3[C@H](O)[C@@H](O)[C@H](N)C[C@@H]3N)OC2[C@@H]1O (stereo partly drawn),17,-1
O=C(Nc1c(C(=O)N2CCOCC2)oc2ccccc12)c1cc2c(s1)CCC2,0,0
Cc1[nH]cnc1CN1CCCN(c2nc3ccccc3s2)CC1,2,1
COc1ccc2cc(C(=O)Nc3ccc4c(c3)OC3(CCCCC3)O4)[nH]c2c1,-4,-5
Cc1cc(C)cc(NC(=O)CSc2nc(=O)n(Cc3ccncc3)c3c2CCC3)c1,-5,-5
CCC(NC(=O)c1cn[nH]c1-c1ccccc1)c1ccnn1C (stereo not drawn),14,9
O=C(c1ccco1)N1CCCN(Cc2ccc(-c3ccn[nH]3)o2)CC1,-3,-3
COc1ccc(CCN(C)C(=O)c2ccc(CSc3nc(Cl)cc(N4CCCC4)n3)cc2)cc1OC,18,21
COCc1ccc(C(=O)N(C)CC2CCCN(CCc3ccccc3F)C2)o1 (stereo not drawn),7,5
CCCc1[nH]n(-c2cccc(Cl)c2)c(=O)c1C1=C([n+]2ccc(C)cc2)C(=O)N(C(C)C)C1=O,-2,-3
CCOc1ccc(N2CC(C(=O)Nc3ccc(S(=O)(=O)NCc4ccco4)cc3)CC2=O)cc1 (stereo not drawn),11,7
CC1CC(C)CN(S(=O)(=O)c2cc(S(C)(=O)=O)ccc2Cl)C1 (stereo not drawn),1,0
Nc1ccc(C(O)(C(F)(F)F)C(F)(F)F)cc1,3,0
O=C(/C=C/c1cccc(S(=O)(=O)Nc2ccccc2)c1)NO,0,-5
N#Cc1ccccc1CSc1nnc(C2CC2)n1C1CC1,0,5
Cc1cccc(NC2=CC(=O)N(C)C2=O)c1,4,9
CCOC(=O)N1CCN(C(=O)c2ccc(CSc3nc(Cl)cc(N4CCN(c5cccc(Cl)c5)CC4)n3)cc2)CC1,-2,5
COc1cccc(C2CC(c3cccs3)=NN2C(=O)C(OC)c2ccccc2)c1O (stereo not drawn),16,20
CN1CCCC2(CC1)CCN(S(=O)(=O)c1ccccc1F)CC2,4,-7
CC(C)S(=O)(=O)c1cccc(C(=O)N(Cc2ccncc2)c2nc3ccc(F)cc3s2)c1,-2,-7
COC(=O)c1ccc(CN(Cc2ccco2)Cc2ccc(C)s2)o1,-3,2
Cc1ccc(-c2c(-c3ccccc3)ncn2CCN2CCCC2=O)c(F)c1,-4,-7
CC(NC(=O)N(C)Cc1ncnn1C)c1ccc(C(C)(C)C)cc1 (stereo not drawn),2,-2
Cc1ccc(-c2csc(C(N)=O)c2)c(-n2cccn2)c1,3,15
Cc1[nH]n(-c2ccccc2)c(=O)c1N=Nc1ccccc1C(=O)O,-6,-11
COc1ccccc1CCn1cnc(-c2ccccc2)c1-c1nccn1C,9,10
CCCCN(Cc1cccn1Cc1cccc(F)c1)C(=O)Nc1ccccc1C(F)(F)F,-1,8
NC(=O)NC(CC(=O)NCc1cccnc1)c1ccc(Cl)cc1 (stereo not drawn),-3,-5
CCn1c(SCC(=O)N/N=C\c2cc(Br)ccc2OC)nc2ccccc21,2,6
COc1ccc2nc(-c3ccc(NS(=O)(=O)c4cc(C)ccc4C)cc3)cn2n1,-8,-12
Cc1cc(C)cc(-n2ncc3c2CCCC3NC(=O)/C=C/c2cccnc2)c1 (stereo not drawn),-10,-11
COc1cc2c(cc1OC)C(c1ccccc1Cl)N(C(=O)c1ccc(F)cc1)CC2 (stereo not drawn),10,1
O=C(c1cc2ccccc2c(=O)o1)N1C[C@H](Oc2ccccn2)[C@H]2C[C@@H]1CC[C@H]2O,21,32
Cc1ccc(C(C)CCN2CCC3(CC2)C(=O)N(C2Cc4ccccc4C2)C(=O)N3CC(C)C)o1 (stereo not drawn),7,-2
O=C(c1ccccc1C(F)(F)F)N1CCC(c2nc(-c3ccc(Cl)cc3F)no2)CC1,-6,-5
Cc1ccccc1NC(=O)c1cc2ccccc2oc1=N,-3,-10
Cc1ccccc1-n1c(C)nnc1SCc1nc(C(=O)NCCc2ccc(Cl)cc2Cl)cs1,2,4
O=c1c2cnc(N3CCCC3)nc2ccn1-c1cccc(C(F)(F)F)c1,4,-1

# Six entries from above, set out differently.
molecule	NPYLR7 agonist	NPYLR7 agonist max-min
O=C(c1cc2ccccc2c(=O)o1)N1C[C@H](Oc2ccccn2)[C@H]2C[C@@H]1CC[C@H]2O	21	32
Cc1ccc(C(C)CCN2CCC3(CC2)C(=O)N(C2Cc4ccccc4C2)C(=O)N3CC(C)C)o1 (stereo not drawn)	7	-2
O=C(c1ccccc1C(F)(F)F)N1CCC(c2nc(-c3ccc(Cl)cc3F)no2)CC1	-6	-5
Cc1ccccc1NC(=O)c1cc2ccccc2oc1=N	-3	-10
Cc1ccccc1-n1c(C)nnc1SCc1nc(C(=O)NCCc2ccc(Cl)cc2Cl)cs1	2	4
O=c1c2cnc(N3CCCC3)nc2ccn1-c1cccc(C(F)(F)F)c1	4	-1

# (listing goes on)
SMILES,NPYLR7 agonist,NPYLR7 agonist max-min
CCOc1ccc(N=c2scc(C)n2CCO)cc1,-4,-11
O=C(c1cccc(Cl)c1)N1CCN(c2nc3nccc(-c4ccc(C5CCCCC5)cc4)n3n2)CC1,5,2
O=C(c1cc2n(n1)CCN(Cc1ccc(F)cc1)C2=O)N1CCc2ccccc2C1,-3,0
COc1ccc(N2C(=O)C3C4C=CC(C4)C3C2=O)cc1 (stereo not drawn),0,-6
O=C(O)c1ccc(Br)s1,3,8
CCN(C(=O)C(=O)c1c(C)n(C)c2ccccc12)C1CCCCC1,0,-1
COc1cccc(CN(Cc2ccc3c(c2)OCO3)Cc2nc(C(=O)N3CCCCC3)co2)c1OC,-1,-3
CN(C)C(=O)c1cc(NC(=O)CNC(=O)Cc2ccccc2)ccc1Cl,1,15
CCCCn1c(=S)[nH]c2sc3c(c2c1=O)CCCC3,16,14
CC(C)NC(=O)c1cc(-c2ccco2)nc2ccccc12,3,-3
COc1ccc(C)cc1NC(=O)c1cc(Cl)c(Cl)n1C,7,5
c1ccc(CNc2ccccn2)cc1,-1,-8
COc1ccc(Cl)cc1-c1nc(C=Nc2ccc(F)cc2)c(O)o1,-6,-14
CN(C)CC1(O)CCCN(C(=O)c2ccc3ccccc3n2)C1 (stereo not drawn),-3,-7
CCOC(=O)Cn1c(=NC(=O)c2ccno2)sc2cccc(F)c21,-4,-11
CC(=O)NNC(=O)c1[nH]c2ccc(Cl)cc2c1-c1ccccc1,-9,-10
CC(C)N1C(=O)COCc2ccc(-c3cccc(C#N)c3)cc21,6,1

# Not all compounds are listed; rates above refer to the full screens.
